YopH PTP inh: YopH tyrosine phosphatase inhibitors, primary screen, biochemical, fluorescence Ex485/Em525; YopH tyrosine phosphatase [Yersinia enterocolitica]; inhibition, %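 (about 10 µM by stock and volumes)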; actives 0.16% (n = 140,000);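 active means inhibition of 50% or more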;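 further: controls were vehicle for no effect and minimum signal wells for full effect; inactives centre near -20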
Arbovirus anti: antivirals against arbovirus infection, primary screen, cell-based, full library, 10K replicate subset; arbovirus infection cell-based antiviral screen; inhibition, % at 10 µM; actives 0.37% (n = 200,000);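 active means inhibition from about 30%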;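 further: bluetongue infection of BSR cells; cell survival read as ATP light after 72 h; 0% = infected wells without compound and 100% = uninfected wells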
Mtb bLac sens: beta-lactam sensitization of Mtb H37Rv, H37Rv | M. tuberculosis H37Rv growth with meropenem, percent inhibition; hits of this screen are not shown here | inhibition, % at 25 µM | actives 0.27% (n = 330,000);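 active means about 74% or more and at least 40 points above the plate without the antibiotic, then above 30% in a dose series; inconclusive means first-round hits that could not be retested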;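 further: growth measured after seven days incubation then overnight dye step; 0% = bacteria only wells and 100% = bacteria with antibiotic; twin plates without the antibiotic show which effects depend on it; some results filed as inactive read as strong as hits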
Mtb growth: M. tuberculosis H37Rv growth inhibitors, H37Rv strain (AID 1626); M. tuberculosis H37Rv growth inhibition; higher % means a stronger effect; inhibition, % at 10 µM; hits with a dose series show IC50 in µM; actives 0.95% (n = 220,000);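 active means confirmed in a dose series; inconclusive means inhibition above 80% but not taken into the dose series; inactive means below 80% or under 30% at every dose of the series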;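 further: bacteria incubated seven days before Alamar blue readout; 0% = bacteria only wells and 100% = bacteria with antibiotic wells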
RecA intein inh: Mtb RecA intein splicing inhibitors, primary screen, biochemical, fluorescence, HTS. inhibition, %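 (about 9 µM by stock and volumes)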. actives 0.75% (n = 290,000). cell-free RecA intein splicing; in the data active means inhibition above about 30%; inconclusive means no clear call, values can overlap the other calls;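 further: 0% = vehicle wells and 100% = reference inhibitor control wells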
Target sequence (P9WHJ3 whole entry, looked up): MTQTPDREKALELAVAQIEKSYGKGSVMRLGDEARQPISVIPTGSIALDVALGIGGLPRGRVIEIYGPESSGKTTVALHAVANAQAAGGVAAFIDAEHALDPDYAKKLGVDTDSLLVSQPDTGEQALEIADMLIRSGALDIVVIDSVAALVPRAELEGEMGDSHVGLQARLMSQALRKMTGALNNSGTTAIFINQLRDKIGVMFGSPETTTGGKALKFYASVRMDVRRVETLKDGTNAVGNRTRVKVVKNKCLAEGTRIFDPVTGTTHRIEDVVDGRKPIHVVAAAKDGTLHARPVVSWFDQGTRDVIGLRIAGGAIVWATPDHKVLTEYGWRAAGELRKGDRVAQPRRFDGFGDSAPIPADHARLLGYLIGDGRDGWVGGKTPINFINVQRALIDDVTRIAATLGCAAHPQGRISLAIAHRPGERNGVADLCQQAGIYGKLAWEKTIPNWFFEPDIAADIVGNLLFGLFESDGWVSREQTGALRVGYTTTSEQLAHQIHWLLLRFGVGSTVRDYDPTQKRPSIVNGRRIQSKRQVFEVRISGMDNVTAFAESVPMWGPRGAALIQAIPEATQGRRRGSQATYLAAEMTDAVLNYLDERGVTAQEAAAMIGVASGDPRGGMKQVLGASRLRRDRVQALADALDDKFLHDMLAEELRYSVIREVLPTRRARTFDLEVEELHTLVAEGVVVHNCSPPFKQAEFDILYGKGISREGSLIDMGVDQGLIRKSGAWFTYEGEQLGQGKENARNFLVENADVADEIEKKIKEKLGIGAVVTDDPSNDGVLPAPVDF
Arbovirus anti repeat: second read-out of Arbovirus anti, no call of its own (marks repeat the call); inhibition, %; measured here: 10K subset replicate screen; many hits read low in the repeat;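 first of two repeat runs on a subset; 0% = infected and 100% = uninfected wells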
Numbers without * were called inactive; ? = inconclusive; nt = no result given. An excerpt; count on the stated rates, not on these rows.

SMILES	YopH PTP inh	Arbovirus anti	Mtb bLac sens	Mtb growth	RecA intein inh	others
CCOC(=O)N1CCN(S(=O)(=O)c2ccc(C)c([N+](=O)[O-])c2)CC1	nt	3	-6	-1%	2.0
Cc1cc(N(C)C)c(C#N)c(=O)[nH]1	-2	-1	-1	8%	-1.0
Cc1csc(NC(=O)c2ccco2)c1C(=O)c1ccccc1	nt	nt	-1	3%	0.4
CC1(C)Cc2c(c(-c3ccccc3)[nH]c(=O)c2C#N)CS1	-43	8	6	-1%	1.2
O=C(Cc1ccc([N+](=O)[O-])cc1)Nc1ccc2c(c1)OCO2	nt	1	0	-2%	1.2
CCc1nc2ccccc2c(C(=O)Oc2cccc3cccnc23)c1C	-42	-9	99	22%	-2.1
C/C=C(\CS(=O)(=O)c1ccccc1)S(=O)(=O)c1ccccc1	5	12	-5	7%	2.8
CC1=Nc2cc(C(=O)N3CCCCC3)ccc2Sc2ccc(C)cc21	nt	nt	2	nt	6.8
CCNc1nc(SCCOc2ccc(C)cc2)nc(N(C)C)n1	-34	-3	?	7%	-4.8
O=C(CCc1ccc(S(=O)(=O)N2CCOCC2)cc1)N1CCCC1	3	3	-17	-5%	3.8
CCc1ccc(N/C(=N/c2nc(C)cc(C)n2)NC(C)=O)cc1	nt	nt	80	nt	0.2
COc1ccc(C(=O)/C=C/c2cccc(OCc3ccccc3)c2)cc1CSCC(=O)O	nt	nt	1	nt	12

Quoted at random: five records from the list.
SMILES	YopH PTP inh	Arbovirus anti	Mtb bLac sens	Mtb growth	RecA intein inh	others
CC1=Nc2cc(C(=O)N3CCCCC3)ccc2Sc2ccc(C)cc21	nt	nt	2	nt	6.8
O=C(CCc1ccc(S(=O)(=O)N2CCOCC2)cc1)N1CCCC1	3	3	-17	-5%	3.8
CCOC(=O)N1CCN(S(=O)(=O)c2ccc(C)c([N+](=O)[O-])c2)CC1	nt	3	-6	-1%	2.0
Cc1csc(NC(=O)c2ccco2)c1C(=O)c1ccccc1	nt	nt	-1	3%	0.4
Cc1cc(N(C)C)c(C#N)c(=O)[nH]1	-2	-1	-1	8%	-1.0

New compounds follow
SMILES	YopH PTP inh	Arbovirus anti	Mtb bLac sens	Mtb growth	RecA intein inh	others
Cc1c(CC(=O)NCCCO)c(=O)oc2cc3c(cc12)CCC(C)(C)O3	nt	nt	-6	nt	-0.2
c1cc(Nc2cccc3nccnc23)c2nccnc2c1	nt	-9	95	7%	0.3
Cc1cc(-n2cnc(-c3cn(C)nc3C)n2)no1	nt	nt	-12	-2%	-0.7
CCN(CC)NC(=S)Nc1ccccc1	-13	6	-14	2%	-0.1
COc1ccc(C(=O)C2CCCN(C(=O)CCc3ccccn3)C2)c(C)c1 (centres undefined)	nt	14	1	-2%	-0.5
Cc1cccc(-n2c(-c3ccccc3)nc3ccccc3c2=O)n1	nt	0	-8	-1%	nt
O=C(NNC1=C(C(=O)C(F)(F)F)CCC1)c1cccnc1	nt	17	5	0%	1.9
O=C(NC(=S)Nc1cccnc1Cl)c1ccc(F)cc1	nt	nt	3	nt	-0.3
COc1ccccc1/C=C1\SC(=O)N(CC(=O)NCCCn2ccnc2)C1=O	nt	nt	7	nt	-1.2
CC(C)c1ccccc1NC(=O)c1ccc(CN(c2ccccc2)S(=O)(=O)c2ccccc2)cc1	-23	4	-8	2%	-2.3
Cc1ccc(S(=O)(=O)CCC(=O)Nc2ccc(Br)cc2)cc1	nt	nt	2	nt	0.2
Cc1ccc(-n2ncc3c2CC(C)(C)CC3NC(=O)c2cc[n+]([O-])cc2)cc1 (centres undefined)	nt	nt	-1	nt	-3.5
COC(=O)Cn1cnc(=O)c(C#N)c1/C=C/N(C)C	-30	0	nt	-14%	nt
O=C(/C=C/c1ccc2c(c1)OCO2)NCc1ccco1	-27	2	0	0%	-9.7
COc1ccc(NC(=S)NNC(=O)CCn2cc([N+](=O)[O-])cn2)cc1	nt	-6	-5	0%	-6.1
c1ccc2c(c1)oc1c(NCCCN3CCOCC3)ncnc12	-29	11	-4	-5%	0.6
COCCNC(=O)C1CCN(Cc2cccc(OCc3ccccc3)c2)CC1	nt	nt	-3	nt	-0.6
CCOC(=O)C1CCN(C(c2cc3cc(C)cc(C)c3[nH]c2=O)c2nnnn2C2CCCCC2)CC1 (centres undefined)	8	nt	2	nt	2.4
COc1cc(NC(=O)CCc2nnc3ccc(N4CCC(C)CC4)nn23)cc(OC)c1	nt	nt	-6	nt	-3.9
O=C(Nc1ccc(C(=O)N2CCOCC2)cc1)c1cccs1	-60	5	-5	0%	1.2
CCCc1nnc(SCc2ccc(OC)cc2)n1N	-38	0	-3	-8%	-4.0
Cc1ccc(C)c(C(=O)OCC(=O)Nc2cccc(S(=O)(=O)NC3=NCCCCC3)c2)c1	nt	-9	-3	6%	1.1
O=C(O)/C=C/C(=O)Nc1ccc(OC(F)F)cc1	nt	4	-1	4%	0.1
CCOC(=O)c1c(NC(=S)N2CCN(C)CC2)sc2c1CCN(C(=O)OCC)C2	nt	nt	88	35%	6.9
O=C(N/N=C/c1cn(-c2ccccc2)nc1-c1cccnc1)c1cccnc1	nt	-6	6	-5%	-4.9
CCOc1ccc(NC(=S)Nc2ccccc2C2(C)CC2)cc1	nt	-3	83	?	-3.3
CS(=O)(=O)NCCOc1ccc(S(=O)(=O)NCCOc2ccccc2)cc1	nt	5	2	4%	-0.4
O=C(C1CCCN(S(=O)(=O)c2cccc3cccnc23)C1)N1CCN(c2ccc(F)cc2)CC1 (centres undefined)	-34	3	-4	1%	-0.7	Arbovirus anti repeat=2
C[C@H](NC(N)=O)C(=O)Nc1ccc2c(c1)OCO2	nt	nt	-1	1%	7.6
O=C(CSc1nnc(Nc2ccccc2)s1)Nc1cccnc1Cl	-25	-2	-9	7%	-0.4
Cc1ccc(NC(=O)CSc2ccc(-c3cccnc3)nn2)cc1	nt	nt	34	nt	-5.2
CCC(CO)[n+]1c(C)cc(/C=C2\Sc3ccccc3N2Cc2ccccc2)cc1C (centres undefined)	-14	-38	100	1.3µM*	nt
Cc1ccc(-c2nn(CCC#N)cc2C(=O)O)cc1C	nt	6	-7	9%	-2.5
CCOc1ccc(/C=C/C(=O)C(C(N)=O)=C2SCCS2)cc1	-26	12	?	2%	2.4
Cc1nc(C)c(-c2ccc(SCc3cccc(F)c3)nn2)s1	nt	nt	2	nt	-3.7
O=C(c1cc2c(s1)-c1ccccc1S(=O)(=O)C2)N1CCCC1	nt	nt	-3	-1%	-3.0
Cc1ccc(N(CC(=O)NCc2ccccc2)C(=O)c2csnn2)c(C)c1	nt	nt	11	nt	0.8
c1ccc(-c2nc3nonc3nc2-c2ccccc2)cc1	-28	-40	99	nt	12
COc1ccc(Cl)cc1N1CC(C(=O)Nc2nccs2)CC1=O (centres undefined)	-16	-13	-2	-10%	-0.1
CN1CCN(CCCNC(=O)c2ccc(/C=C3\Oc4ccccc4N(Cc4ccccc4F)C3=O)cc2)CC1	nt	nt	41	nt	-54
CC(C)CC1Nc2ncnc(N3CCCCC3)c2N(Cc2ccc(Br)cc2)C1=O (centres undefined)	nt	nt	16	nt	11
Cc1c(C(=O)N2CCc3ccccc3C2)oc2ccc(Br)cc12	nt	nt	6	nt	15
CCCOc1ccc2nc(C)c(CCC)c(SC(=N)N)c2c1	nt	nt	-3	0%	-0.9
CCOC(=O)CN(C(=O)c1ccccc1[N+](=O)[O-])C(C)(C)C	nt	nt	0	-5%	-0.5
COc1ccc2c(c1)nc(SCC(=O)c1cccs1)n2C	-24	-2	-1	0%	2.8
Cc1ccccc1CNC(=O)CCn1nc(C)c2c(C)n(-c3ccccc3)nc2c1=O	nt	nt	-1	nt	-3.1
O=C(Oc1cccnc1)c1ccc([N+](=O)[O-])cc1	-31	8	10	-2%	15
O=C(NCc1cccc(Br)c1)C1CC2Cn3c(nc4ccccc43)C2N1Cc1ccccc1 (centres undefined)	nt	nt	-2	-4%	1.0
CCOC(=O)N1CCN(S(=O)(=O)c2ccc(C(=O)N(CCCN(C)C)c3nc4c(C)c(C)ccc4s3)cc2)CC1	nt	nt	-11	nt	-1.1
Cc1cc(C)nc(SC2CC(=O)N(c3ccc(C)c(C)c3)C2=O)n1 (centres undefined)	nt	nt	-6	nt	0.7
O=C(NCCCN1CCOCC1)C(=O)NCC1OCCN1S(=O)(=O)c1ccc(Br)cc1 (centres undefined)	nt	nt	-7	nt	0.9
COc1ccc(-c2csc3ncn(Cc4ccccc4)c(=O)c23)cc1	nt	nt	-16	nt	4.6
N#CC(C#N)=Cc1cc2ccccc2nc1N1CCCCC1	-5	32*	5	10%	25
O=C(CN1CCC(NC(=O)Cc2ccccc2)CC1)Nc1cccc2ccccc12	-13	-9	-5	2%	-1.1
Cc1noc(C)c1COC(=O)[C@H](C)NS(=O)(=O)c1ccc(Cl)c(Cl)c1	-28	2	4	-4%	1.3
COC(=O)c1ccc(NC(=S)NCCCN2CCCC2=O)cc1	nt	3	-9	-2%	-0.2
CCc1ccc(NC(=O)NNC(=O)CCc2ccccc2)cc1	nt	nt	-4	nt	1.0
O=C(CCC(=O)OCC(F)(F)C(F)F)Nc1ccc(F)cc1F	-34	7	-5	0%	-2.2
COc1cccc(-n2nnc3c(=O)n(CC(=O)Nc4ccc(C)cc4)cnc32)c1	nt	10	7	11%	2.2
Cc1ccc2nc(SC(C)C(=O)N3CCCC3)[nH]c2c1 (centres undefined)	-16	-2	-3	-1%	2.3

4 structures already listed, ordered by formula weight, low to high.
SMILES	YopH PTP inh	Arbovirus anti	Mtb bLac sens	Mtb growth	RecA intein inh	others
CCc1ccc(NC(=O)NNC(=O)CCc2ccccc2)cc1	nt	nt	-4	nt	1.0
CCCOc1ccc2nc(C)c(CCC)c(SC(=N)N)c2c1	nt	nt	-3	0%	-0.9
Cc1ccc(N(CC(=O)NCc2ccccc2)C(=O)c2csnn2)c(C)c1	nt	nt	11	nt	0.8
O=C(NCc1cccc(Br)c1)C1CC2Cn3c(nc4ccccc43)C2N1Cc1ccccc1 (centres undefined)	nt	nt	-2	-4%	1.0

Back to the main list, repeating the four entries before the break.
SMILES	YopH PTP inh	Arbovirus anti	Mtb bLac sens	Mtb growth	RecA intein inh	others
CCc1ccc(NC(=O)NNC(=O)CCc2ccccc2)cc1	nt	nt	-4	nt	1.0
O=C(CCC(=O)OCC(F)(F)C(F)F)Nc1ccc(F)cc1F	-34	7	-5	0%	-2.2
COc1cccc(-n2nnc3c(=O)n(CC(=O)Nc4ccc(C)cc4)cnc32)c1	nt	10	7	11%	2.2
Cc1ccc2nc(SC(C)C(=O)N3CCCC3)[nH]c2c1 (centres undefined)	-16	-2	-3	-1%	2.3
Cc1ccc(-c2nnn(CC(=O)N(c3ccccc3)C(C(=O)NC3CCCC3)c3ccco3)n2)o1 (centres undefined)	-39	-5	-4	-1%	0.9
C=CCn1c(COc2ccc(Cl)cc2)nnc1SCC(=O)N1CC(=O)Nc2ccccc21	1	-3	8	1%	3.9
Cc1csc2ncc(C(=O)NCc3ccccc3Cl)c(=O)n12	-17	-4	3	0%	2.2
Cc1cccc2c1-c1sc(C(=O)N3CCc4ccccc4C3)cc1CO2	-24	-11	4	nt	1.3
CCCCOCC(O)CCc1n[nH]c(=S)n1-c1ccccc1 (centres undefined)	nt	8	-7	0%	0.2
COc1ccc([C@@H]2C[C@@H](c3ccccc3)Oc3cc(C)cc(C)c32)cc1	nt	nt	nt	-2%	1.0
CC(C)N(Cc1nc(-c2ccccc2)no1)C(=O)CCCN1C(=O)c2ccccc2C1=O	-26	6	-12	3%	4.1
Cc1c(NC(=O)C(C)Oc2ncnc3ccccc23)c(=O)n(-c2ccccc2)n1C (centres undefined)	-19	-3	-10	-4%	0.1
CCOc1ccc(S(=O)(=O)NCc2cccnc2)cc1	nt	nt	3	nt	0.6
Cc1ccc(OCC(=O)Nc2ccc(N3CCOCC3)cc2)c([N+](=O)[O-])n1	nt	6	-5	6%	nt
COc1ccc(NS(=O)(=O)c2ccc(N3CCCC3=O)cc2)cn1	nt	-2	-11	0%	-2.9
